Ran importin – inhibitors of Ran–importin-beta complex formation, primary screen, biochemical, CFP-Ran/YFP-importin-beta FRET, RCC1, cell-free (AID 434961); inhibition, %; CFP-Ran/YFP-importin-beta FRET, cell-free; hits give high values; hit rate 0.2% among 7,700;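 active = more than half of the replicate wells above 15% inhibition; inconclusive = exactly half above it; inactive = fewer than half above it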;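 note: 0% = DMSO wells and 100% inhibition = RanGDP control wells on each plate; stock of unstated strength diluted about 400-fold; mean of two wells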
The depositor's hits bear a star; ? = inconclusive. This is a subset; the hit share may differ from the screen's.

> CNC[C@@H]1Oc2ccc(NC(=O)NC3CCCCC3)cc2C(=O)N([C@H](C)CO)C[C@H]1C
  Ran importin: -2.5

> CC(C)NC(=O)Nc1ccc2c(c1)C(=O)N([C@@H](C)CO)C[C@H](C)[C@H](CN(C)C(=O)c1ccccc1)OCCCC[C@@H](C)O2
  Ran importin: 10.8

> C[C@@H]1CN([C@@H](C)CO)C(=O)Cc2cc(NC(=O)c3ccncc3)ccc2O[C@H]1CN(C)C(=O)Nc1ccccc1
  Ran importin: 3.7

> C[C@@H]1CN([C@H](C)CO)C(=O)c2cc(N(C)C)ccc2O[C@H]1CN(C)C(=O)Nc1ccc2c(c1)OCO2
  Ran importin: 1.4

> C[C@H]1CCCCO[C@H](CN(C)C(=O)Nc2ccccc2)[C@@H](C)CN([C@@H](C)CO)C(=O)c2cc(NC(=O)CCCN(C)C)ccc2O1
  Ran importin: 5.8

> C[C@H]1CCCCO[C@@H](CN(C)C)[C@@H](C)CN([C@@H](C)CO)C(=O)c2cc(NC(=O)Nc3ccc4c(c3)OCO4)ccc2O1
  Ran importin: 5.2

> C[C@H](CO)N1C[C@H](C)[C@@H](CN(C)S(=O)(=O)c2ccc(F)cc2)Oc2c(NC(=O)c3ccncc3)cccc2C1=O
  Ran importin: 2.4

> C[C@@H]1CN([C@H](C)CO)C(=O)c2cccc(NC(=O)Nc3cccc4ccccc34)c2O[C@H]1CN(C)S(=O)(=O)c1cccs1
  Ran importin: 0.3

> C[C@@H]1CN([C@H](C)CO)C(=O)c2cc(NS(=O)(=O)c3cccs3)ccc2O[C@@H](C)CCCCO[C@H]1CN(C)C(=O)C1CCCCC1
  Ran importin: -4.2

> CNC[C@H]1OCCCC[C@H](C)Oc2ccc(NC(=O)C3CCCCC3)cc2C(=O)N([C@@H](C)CO)C[C@@H]1C
  Ran importin: -2.9

> C[C@H](CO)N1C[C@H](C)[C@@H](CN(C)Cc2ccc3c(c2)OCO3)Oc2c(NC(=O)NC3CCCCC3)cccc2C1=O
  Ran importin: -0.9

> C[C@@H]1CN([C@H](C)CO)C(=O)c2cc(NC(=O)CCN3CCOCC3)ccc2O[C@H]1CN(C)C
  Ran importin: 3.3

> C[C@@H]1CN([C@@H](C)CO)C(=O)c2cc(NC(=O)Nc3ccc(F)cc3)ccc2O[C@@H](C)CCCCO[C@@H]1CN(C)C(=O)c1ccccc1
  Ran importin: -2.3

> CNC[C@H]1Oc2ccc(NS(=O)(=O)c3cccs3)cc2CC(=O)N([C@@H](C)CO)C[C@@H]1C
  Ran importin: -6.7

> C[C@H](CO)N1C[C@H](C)[C@@H](CN(C)Cc2ccc(Cl)c(Cl)c2)Oc2c(NC(=O)C3CCOCC3)cccc2C1=O
  Ran importin: 0.1

> C[C@@H]1CN([C@@H](C)CO)C(=O)c2cccc(NC(=O)NC3CCCCC3)c2O[C@@H]1CN(C)C(=O)Nc1ccc(F)cc1
  Ran importin: 7.1

> CC(C)NC(=O)N(C)C[C@@H]1OCCCC[C@H](C)Oc2ccc(NC(=O)Nc3ccc(F)cc3)cc2C(=O)N([C@@H](C)CO)C[C@@H]1C
  Ran importin: -3.3

> C[C@@H]1CN([C@@H](C)CO)C(=O)c2cc(NC(=O)C3CC3)ccc2O[C@H]1CN(C)Cc1ccc(Cl)c(Cl)c1
  Ran importin: 1.4

> CNC[C@@H]1OCCCC[C@H](C)Oc2ccc(NS(=O)(=O)c3c(C)noc3C)cc2C(=O)N([C@@H](C)CO)C[C@H]1C
  Ran importin: -3.0

> C[C@H]1CCCCO[C@H](CN(C)C)[C@@H](C)CN([C@@H](C)CO)C(=O)c2cc(NS(=O)(=O)c3ccc(Cl)cc3)ccc2O1
  Ran importin: -4.6

> Cc1noc(C)c1S(=O)(=O)N(C)C[C@H]1Oc2ccc(NS(=O)(=O)c3ccc(Cl)cc3)cc2C(=O)N([C@H](C)CO)C[C@H]1C
  Ran importin: 4.8

> C[C@@H]1CN([C@H](C)CO)C(=O)c2cccc(NS(=O)(=O)c3ccc(Cl)cc3)c2O[C@@H]1CN(C)Cc1ccncc1
  Ran importin: -4.1

> Cc1noc(C)c1NC(=O)N(C)C[C@@H]1Oc2ccc(NC(=O)c3ccncc3)cc2CC(=O)N([C@H](C)CO)C[C@@H]1C
  Ran importin: -1.8

> C[C@H]1CN([C@@H](C)CO)C(=O)Cc2cc(NC(=O)CCN3CCOCC3)ccc2O[C@@H]1CN(C)C(=O)Nc1ccccc1
  Ran importin: -0.6

> C[C@H]1CN([C@@H](C)CO)C(=O)c2cc(NC(=O)Nc3ccccc3)ccc2O[C@H]1CN(C)C(=O)Nc1ccccc1
  Ran importin: 3.3

> CNC[C@@H]1Oc2ccc(NC(=O)CCC(F)(F)F)cc2CC(=O)N([C@H](C)CO)C[C@@H]1C
  Ran importin: -2.9

> Cc1noc(C)c1NC(=O)N(C)C[C@H]1Oc2ccc(NC(=O)Nc3cccc4ccccc34)cc2C(=O)N([C@@H](C)CO)C[C@@H]1C
  Ran importin: -3.9

> C[C@@H]1CN([C@H](C)CO)C(=O)c2cc(NS(C)(=O)=O)ccc2O[C@@H]1CN(C)C
  Ran importin: -0.6

> CNC[C@H]1Oc2c(NC(=O)Nc3ccc(C(F)(F)F)cc3)cccc2C(=O)N([C@H](C)CO)C[C@H]1C
  Ran importin: -0.3

> C[C@H]1CN([C@@H](C)CO)C(=O)c2cccc(NC(=O)NC3CCCCC3)c2O[C@@H]1CN(C)Cc1ccncc1
  Ran importin: 0.0

> CC(C)NC(=O)N(C)C[C@@H]1Oc2ccc(NC(=O)CCCN(C)C)cc2CC(=O)N([C@@H](C)CO)C[C@H]1C
  Ran importin: 5.3

> COc1ccc(NC(=O)Nc2ccc3c(c2)CC(=O)N([C@H](C)CO)C[C@H](C)[C@@H](CN(C)S(=O)(=O)c2ccc(C)cc2)O3)cc1
  Ran importin: 2.3

> C[C@@H]1CN([C@@H](C)CO)C(=O)c2cc(NC(=O)CCC(F)(F)F)ccc2O[C@H]1CN(C)C(=O)Nc1cccc2ccccc12
  Ran importin: -2.2

> C[C@@H]1CCCCO[C@@H](CN(C)Cc2ccccc2)[C@H](C)CN([C@@H](C)CO)C(=O)c2cc(NS(=O)(=O)c3cccs3)ccc2O1
  Ran importin: 6.8

> COc1ccc(S(=O)(=O)Nc2cccc3c2O[C@@H](CN(C)CC2CC2)[C@@H](C)CN([C@H](C)CO)C3=O)cc1
  Ran importin: ?

> C[C@@H]1CN([C@H](C)CO)C(=O)c2cc(NS(=O)(=O)c3cn(C)cn3)ccc2O[C@@H]1CN(C)C(=O)Nc1ccc(F)cc1
  Ran importin: 2.1

> CNC[C@@H]1Oc2c(NC(=O)Nc3ccc(C(F)(F)F)cc3)cccc2C(=O)N([C@@H](C)CO)C[C@H]1C
  Ran importin: -0.7

> C[C@H]1CCCCO[C@@H](CN(C)C)[C@@H](C)CN([C@@H](C)CO)C(=O)c2cc(NC(=O)c3ccncc3)ccc2O1
  Ran importin: -2.9

> C[C@@H]1CCCCO[C@H](CN(C)S(=O)(=O)c2ccc(F)cc2)[C@@H](C)CN([C@@H](C)CO)C(=O)c2cc(NC(=O)Nc3ccccc3)ccc2O1
  Ran importin: 3.5

> C[C@H](CO)N1C[C@H](C)[C@H](CN(C)S(=O)(=O)c2ccccc2)Oc2ncc(C#Cc3ccccc3)cc2C1=O
  Ran importin: -0.3

> C[C@@H]1CN([C@H](C)CO)C(=O)c2cccc(NS(=O)(=O)c3ccccc3)c2O[C@@H]1CN(C)C(=O)Nc1ccc(C(F)(F)F)cc1
  Ran importin: 0.9

> COc1ccc(C#Cc2cnc3c(c2)C(=O)N([C@H](C)CO)C[C@H](C)[C@H](CN(C)Cc2ccccc2)O3)cc1OC
  Ran importin: 1.2

> CNC[C@@H]1Oc2ccc(NS(=O)(=O)c3cccs3)cc2CC(=O)N([C@H](C)CO)C[C@@H]1C
  Ran importin: -2.5

> CC(C)NC(=O)Nc1ccc2c(c1)C(=O)N([C@@H](C)CO)C[C@@H](C)[C@@H](CN(C)S(=O)(=O)c1cccs1)OCCCC[C@@H](C)O2
  Ran importin: -2.9

> C[C@@H]1CN([C@H](C)CO)C(=O)c2cccc(N(C)C)c2O[C@@H]1CN(C)C(=O)Nc1cccc2ccccc12
  Ran importin: 0.2

For convenience, some entries already given.
> COc1ccc(C#Cc2cnc3c(c2)C(=O)N([C@H](C)CO)C[C@H](C)[C@H](CN(C)Cc2ccccc2)O3)cc1OC
  Ran importin: 1.2

> CNC[C@@H]1Oc2ccc(NS(=O)(=O)c3cccs3)cc2CC(=O)N([C@H](C)CO)C[C@@H]1C
  Ran importin: -2.5

> CC(C)NC(=O)Nc1ccc2c(c1)C(=O)N([C@@H](C)CO)C[C@@H](C)[C@@H](CN(C)S(=O)(=O)c1cccs1)OCCCC[C@@H](C)O2
  Ran importin: -2.9

> C[C@@H]1CN([C@H](C)CO)C(=O)c2cccc(N(C)C)c2O[C@@H]1CN(C)C(=O)Nc1cccc2ccccc12
  Ran importin: 0.2

Continued:
> C[C@@H]1CN([C@@H](C)CO)C(=O)c2cccc(NC(=O)Nc3ccc(F)cc3)c2O[C@@H]1CN(C)C(=O)NC1CCCCC1
  Ran importin: -2.8

> C[C@@H]1CCCCO[C@@H](CN(C)S(=O)(=O)c2cccs2)[C@@H](C)CN([C@@H](C)CO)C(=O)c2cc(N(C)C)ccc2O1
  Ran importin: -0.7

> CNC[C@@H]1OCc2cn(nn2)CCCC(=O)N([C@H](C)CO)C[C@H]1C
  Ran importin: -2.7

> C[C@@H]1CN([C@@H](C)CO)C(=O)c2cccc(NC(=O)C3CCOCC3)c2O[C@H]1CN(C)Cc1ccc2c(c1)OCO2
  Ran importin: -1.5

> Cc1noc(C)c1S(=O)(=O)Nc1ccc2c(c1)CC(=O)N([C@@H](C)CO)C[C@@H](C)[C@@H](CN(C)C(=O)Nc1ccccc1)O2
  Ran importin: -4.7

> C[C@H]1CCCCO[C@H](CN(C)Cc2ccccc2)[C@@H](C)CN([C@@H](C)CO)C(=O)c2cc(NS(=O)(=O)c3cccs3)ccc2O1
  Ran importin: -1.5

> Cc1noc(C)c1NC(=O)N(C)C[C@H]1Oc2ccc(NC(=O)NC3CCCCC3)cc2C(=O)N([C@@H](C)CO)C[C@H]1C
  Ran importin: -2.3

> CC(C)NC(=O)Nc1ccc2c(c1)C(=O)N([C@@H](C)CO)C[C@H](C)[C@@H](CN(C)C(=O)Nc1ccccc1)OCCCC[C@H](C)O2
  Ran importin: ?

> CC(C)NC(=O)N(C)C[C@H]1OCCCC[C@@H](C)Oc2ccc(NS(=O)(=O)c3ccccc3)cc2C(=O)N([C@H](C)CO)C[C@@H]1C
  Ran importin: -1.9

> C[C@@H]1CCCCO[C@@H](CN(C)Cc2ccncc2)[C@@H](C)CN([C@@H](C)CO)C(=O)c2cc(NC(=O)Cc3ccccc3)ccc2O1
  Ran importin: -6.1

> C[C@@H]1CN([C@@H](C)CO)C(=O)c2cccc(NS(=O)(=O)c3cccs3)c2O[C@H]1CN(C)Cc1ccc(Oc2ccccc2)cc1
  Ran importin: 3.3

> C[C@@H]1CN([C@H](C)CO)C(=O)Cc2cc(NC(=O)CCCN(C)C)ccc2O[C@H]1CN(C)C
  Ran importin: 3.1

> C[C@@H]1CN([C@H](C)CO)C(=O)c2cc(NC(=O)CCCN(C)C)ccc2O[C@@H]1CN(C)C
  Ran importin: 0.0

> C[C@@H]1CN([C@@H](C)CO)C(=O)Cc2cc(NS(=O)(=O)c3cccs3)ccc2O[C@@H]1CN(C)C(=O)Nc1cccc2ccccc12
  Ran importin: 2.7

> C[C@@H]1CCCCO[C@@H](CN(C)S(=O)(=O)c2ccccc2)[C@H](C)CN([C@@H](C)CO)C(=O)c2cc(N(C)C)ccc2O1
  Ran importin: -4.4

> Cc1noc(C)c1NC(=O)Nc1cccc2c1O[C@H](CN(C)Cc1ccncc1)[C@@H](C)CN([C@@H](C)CO)C2=O
  Ran importin: ?

> C[C@@H]1CN([C@H](C)CO)C(=O)Cc2cc(NC(=O)NC3CCCCC3)ccc2O[C@H]1CN(C)C(=O)Nc1ccc(F)cc1
  Ran importin: -1.7

> C[C@H]1CCCCO[C@@H](CN(C)C)[C@@H](C)CN([C@@H](C)CO)C(=O)c2cc(NC(=O)Nc3ccc(F)cc3)ccc2O1
  Ran importin: 0.1

> Cc1noc(C)c1NC(=O)Nc1ccc2c(c1)C(=O)N([C@@H](C)CO)C[C@H](C)[C@H](CN(C)C)O2
  Ran importin: 4.0

> C[C@H](CO)N1C[C@H](C)[C@@H](CN(C)S(=O)(=O)c2ccc(Cl)cc2)Oc2c(NC(=O)NC3CCCCC3)cccc2C1=O
  Ran importin: -0.4

> C[C@@H]1CCCCO[C@H](CN(C)C(=O)C2CCCCC2)[C@@H](C)CN([C@H](C)CO)C(=O)c2cc(NC(=O)Nc3ccccc3)ccc2O1
  Ran importin: 2.1

> COc1ccc(NC(=O)Nc2ccc3c(c2)C(=O)N([C@H](C)CO)C[C@@H](C)[C@@H](CN(C)S(=O)(=O)c2ccc(OC)cc2)O3)cc1
  Ran importin: 0.0

> C[C@@H]1CN([C@@H](C)CO)C(=O)Cc2cc(NS(=O)(=O)c3ccc(Cl)cc3)ccc2O[C@H]1CN(C)C(=O)Nc1ccc(F)cc1
  Ran importin: -1.0

> COc1ccc(S(=O)(=O)N(C)C[C@H]2Oc3c(NC(=O)c4cc(C)nn4C)cccc3C(=O)N([C@@H](C)CO)C[C@@H]2C)cc1
  Ran importin: -1.6

> C[C@H]1CN([C@@H](C)CO)C(=O)Cc2cc(NS(=O)(=O)c3ccccc3)ccc2O[C@H]1CN(C)C(=O)Nc1cccc2ccccc12
  Ran importin: -2.3

> C[C@H]1CCCCO[C@@H](CN(C)C)[C@@H](C)CN([C@@H](C)CO)C(=O)c2cc(NC(=O)c3ccccc3)ccc2O1
  Ran importin: 1.7

> COc1ccc(S(=O)(=O)Nc2cccc3c2O[C@H](CN(C)C)[C@H](C)CN([C@@H](C)CO)C3=O)cc1
  Ran importin: 1.3

> COc1ccc(S(=O)(=O)N(C)C[C@@H]2Oc3c(NC(=O)Nc4c(C)noc4C)cccc3C(=O)N([C@@H](C)CO)C[C@H]2C)cc1
  Ran importin: 2.6

> CNC[C@H]1Oc2ccc(NC(=O)Nc3c(C)noc3C)cc2CC(=O)N([C@H](C)CO)C[C@@H]1C
  Ran importin: ?

> C[C@@H]1CN([C@H](C)CO)C(=O)Cc2cc(NS(C)(=O)=O)ccc2O[C@H]1CN(C)CC1CC1
  Ran importin: -3.7

From PubChem BioAssay
